# RanGTP-Impb inh = disruptors of Ran-importin-beta complex formation – biochemical, FRET, CFP-Ran, YFP-importin-beta, homogeneous, primary screen; cell-free CFP-Ran/YFP-importin-beta FRET ratio; inhibition, % (concentration not given with the values); 300,000 compounds, 1.1% hits;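 active means most replicates above 15%; inconclusive means exactly half above 15%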;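 further: 0% = DMSO wells and 100% = Ran loaded with GDP instead of GTP; wells of about 40 µL received 100 nL stock; the first replicate is given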
# T cruzi inh = blocks replication of Trypanosoma cruzi; 300,000 compounds, 1.4% hits; T. cruzi beta-gal in NIH3T3, luminescence, 90 h; inhibition, % (no concentration beside the values);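 active means mean inhibition across valid replicates above about 55%, limit read from the data; inconclusive means mean below that limit but half or more replicates reach it; inactive means mean below it, under half of replicates reach it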;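 further: signal also drops with host cell toxicity which is not excluded here; 0% = plate median of DMSO wells and 100% = zero luminescence signal; higher percent means less beta-gal luminescence so fewer parasites; stock transfer was 50 nL into about 50 µL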
# Calb FLC = affects C. albicans growth with fluconazole; C. albicans CaCi-2 (fluconazole-resistant clinical isolate) + fluconazole, Alamar Blue growth, 48 h; growth inhibition, % (test concentration not listed); 300,000 compounds, 0.57% hits; AID 1979;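 active means most replicates above 75%; inconclusive means exactly half above 75%; inactive means most below 75%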;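 further: all wells also contain fluconazole at 8 µg/ml as a sub-toxic cotreatment; 0% = median of DMSO wells and 100% = median of geldanamycin control wells; wells of about 8 µL received 7.5 nL stock; the first replicate is given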
# FGF22 binding = binders of recombinant human FGF22 by thermal shift; SYPRO orange fluorescence; percent of sucrose octasulfate shift, DMSO zero; calls only at 9.99 µM; 340,000 compounds, 1.5% hits;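 active means melting point raised past a set limit in the mean and every replicate; inconclusive means no clear call; three in four hits are not shown here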
# Target sequence (Q9HCT0 whole entry, looked up): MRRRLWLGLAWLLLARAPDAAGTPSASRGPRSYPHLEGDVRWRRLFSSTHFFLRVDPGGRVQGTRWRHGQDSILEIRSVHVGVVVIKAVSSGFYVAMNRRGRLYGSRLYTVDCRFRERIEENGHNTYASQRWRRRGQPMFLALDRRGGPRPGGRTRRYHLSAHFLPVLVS
# rRNA inh HTS = inhibitors of bacterial rRNA selective over humanized ribosomes; AID 720706; E. coli WT GFP vs humanized-ribosome RFP mutants, fluorescence, 24 h; active compounds read low; DMSO median 0, no signal -100; GFP signal change (wild-type ribosome), % (no concentration beside the values); 350,000 compounds, 1.6% hits;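 active means significant combined selectivity score with lowered wild-type GFP, culture density cut under 30%, mutant RFP and density less affected; inactive means any of these conditions unmet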; further: one replicate is shown; some compounds called inactive have numbers as strong as hits
# ALR H2O2 inh = blocks human ALR sulfhydryl oxidase activity; 290,000 compounds, 3.8% hits; purified ALR, DTT oxidation, H2O2 HRP-luminol luminescence; P55789; AID 485317; inhibition, % (test concentration not listed);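 active means mean and each replicate at 75% or more; inconclusive means only one of the two met; inactive means neither met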;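 further: stock transfer was 7.5 nL into about 7.5 µL; 0% = neutral wells and 100% = wells with inactivated enzyme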
# Target sequence (P55789 whole entry, looked up): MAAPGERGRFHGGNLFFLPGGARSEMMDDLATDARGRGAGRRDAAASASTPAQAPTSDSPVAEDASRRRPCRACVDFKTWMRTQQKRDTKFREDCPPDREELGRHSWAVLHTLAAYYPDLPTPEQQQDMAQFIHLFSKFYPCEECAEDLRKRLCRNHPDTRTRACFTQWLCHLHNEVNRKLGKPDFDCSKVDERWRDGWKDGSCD
# AF4-AF9 inh = blocks AF4 peptide binding to human AF9 | P42568 | AlphaScreen, biotin-AF4 peptide binding to FLAG-AF9 | inhibition, % at 10 µM | 350,000 compounds, 0.47% hits;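 active means every replicate reaching a set inhibition limit, whatever the replicate mean, cut at about 25% in these data; inconclusive means mean inhibition reaches that limit but some replicates miss it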;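 further: 0% = plate neutral control median and 100% = total signal loss; the record names both 10 and 1 µM as test concentration; the first replicate is given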
# Target sequence (P42568 whole entry, looked up): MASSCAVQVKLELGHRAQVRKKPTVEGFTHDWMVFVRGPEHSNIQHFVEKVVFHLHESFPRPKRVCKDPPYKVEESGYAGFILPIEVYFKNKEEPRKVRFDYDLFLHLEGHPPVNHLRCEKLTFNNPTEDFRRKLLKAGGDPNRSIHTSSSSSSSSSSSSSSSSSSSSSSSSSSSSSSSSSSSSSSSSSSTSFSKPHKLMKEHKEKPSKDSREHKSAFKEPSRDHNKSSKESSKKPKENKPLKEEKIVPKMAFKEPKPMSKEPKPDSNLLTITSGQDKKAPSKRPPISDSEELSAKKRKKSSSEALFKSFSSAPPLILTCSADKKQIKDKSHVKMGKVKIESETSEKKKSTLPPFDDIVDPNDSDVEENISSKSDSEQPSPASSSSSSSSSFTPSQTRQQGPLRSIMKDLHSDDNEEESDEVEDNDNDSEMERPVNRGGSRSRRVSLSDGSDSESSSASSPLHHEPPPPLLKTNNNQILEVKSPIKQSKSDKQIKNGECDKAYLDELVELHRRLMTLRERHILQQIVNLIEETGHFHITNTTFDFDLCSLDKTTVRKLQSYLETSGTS
# Beta cell apopt = blocks beta cell apoptosis. INS-1E cytokine-induced death, ATP luminescence, 48 h; percent of positive-control rescue, neutral wells zero. protection from apoptosis, % (no concentration beside the values). 300,000 compounds, 0.8% hits;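 active means all replicates at 75% or more, or half of them and the mean; inconclusive means half reach 75% but not the mean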;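 further: 0% = cytokine-treated negative control wells and 100% = positive control rescue; higher means more ATP so stronger rescue from cytokine killing; wells of about 40 µL received 100 nL stock; the first replicate is given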
# rRNA inh HTS OD600 = also measured in rRNA inh HTS; calls as there; OD600 change, %; measured here: OD600 growth;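 optical density of the mix in the first replicate; 0 = DMSO median and -100 = no signal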
# rRNA inh HTS RFP = second read-out of rRNA inh HTS, no call of its own (marks repeat the call); RFP signal change, %; measured here: RFP humanized mutant strains;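 first replicate; 0 = DMSO median and -100 = no signal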
# An asterisk follows results filed as active; i = inactive; u = inconclusive; x = no result given.
cpd	SMILES	RanGTP-Impb inh	T cruzi inh	Calb FLC	FGF22 binding	rRNA inh HTS
1	CC(C)NC(=O)c1ccc2c(c1)N(CC(=O)Nc1ccccc1F)C(=O)C(C)(C)O2	0.9	2	-3	i	-2
2	S=C(NCc1ccco1)Nc1ccc(Cl)cc1Cl	-4.4	2	0	i	-15
3	COc1ccc(C(=O)NC2CCN(CC(=O)NCc3ccccc3)CC2)cc1	-0.4	-2	-2	i	7
4	O=c1[nH]cc(-c2ccc(Br)cc2)n1Cc1ccccc1	1.4	-10	0	i	-34
5	O=C(Nc1ccccn1)C(=O)Nc1ccccn1	5.4	0	1	i	11
6	O=C(Nn1c(Cc2ccccc2)nc2ccccc2c1=O)c1c(O)c2cccc3c2n(c1=O)CCC3	-3.5	49	30	i	12
7	NC(=O)CN(N=Nc1cccc([N+](=O)[O-])c1)c1cccc([N+](=O)[O-])c1	2.5	-9	10	i	14
8	Nc1ccn(Cc2ccccc2F)n1	-2.3	-4	3	i	-1

cpd	rRNA inh HTS OD600	rRNA inh HTS RFP	ALR H2O2 inh	AF4-AF9 inh	Beta cell apopt
1	2	1.7	x	2.8	3
2	-15	-3.0	3	3.1	0
3	18	-0.1	-2	-4.3	-1
4	-41	-5.6	x	7.1	1
5	4	2.8	0	2.9	-10
6	11	0.7	1	-1.0	-8
7	7	1.7	-15	-1.0	26
8	-5	-2.4	-13	1.3	-1

# Pulled by compound from the list above (7):
cpd	SMILES	RanGTP-Impb inh	T cruzi inh	Calb FLC	FGF22 binding	rRNA inh HTS
1	CC(C)NC(=O)c1ccc2c(c1)N(CC(=O)Nc1ccccc1F)C(=O)C(C)(C)O2	0.9	2	-3	i	-2
8	Nc1ccn(Cc2ccccc2F)n1	-2.3	-4	3	i	-1
3	COc1ccc(C(=O)NC2CCN(CC(=O)NCc3ccccc3)CC2)cc1	-0.4	-2	-2	i	7
4	O=c1[nH]cc(-c2ccc(Br)cc2)n1Cc1ccccc1	1.4	-10	0	i	-34
2	S=C(NCc1ccco1)Nc1ccc(Cl)cc1Cl	-4.4	2	0	i	-15
6	O=C(Nn1c(Cc2ccccc2)nc2ccccc2c1=O)c1c(O)c2cccc3c2n(c1=O)CCC3	-3.5	49	30	i	12
7	NC(=O)CN(N=Nc1cccc([N+](=O)[O-])c1)c1cccc([N+](=O)[O-])c1	2.5	-9	10	i	14

cpd	rRNA inh HTS OD600	rRNA inh HTS RFP	ALR H2O2 inh	AF4-AF9 inh	Beta cell apopt
1	2	1.7	x	2.8	3
8	-5	-2.4	-13	1.3	-1
3	18	-0.1	-2	-4.3	-1
4	-41	-5.6	x	7.1	1
2	-15	-3.0	3	3.1	0
6	11	0.7	1	-1.0	-8
7	7	1.7	-15	-1.0	26

# Back to the main list; the five compounds before the break are reprinted first.
cpd	SMILES	RanGTP-Impb inh	T cruzi inh	Calb FLC	FGF22 binding	rRNA inh HTS
4	O=c1[nH]cc(-c2ccc(Br)cc2)n1Cc1ccccc1	1.4	-10	0	i	-34
5	O=C(Nc1ccccn1)C(=O)Nc1ccccn1	5.4	0	1	i	11
6	O=C(Nn1c(Cc2ccccc2)nc2ccccc2c1=O)c1c(O)c2cccc3c2n(c1=O)CCC3	-3.5	49	30	i	12
7	NC(=O)CN(N=Nc1cccc([N+](=O)[O-])c1)c1cccc([N+](=O)[O-])c1	2.5	-9	10	i	14
8	Nc1ccn(Cc2ccccc2F)n1	-2.3	-4	3	i	-1
9	O=[N+]([O-])c1ccc(Cl)c(S(=O)(=O)Nc2ccc3cn[nH]c3c2)c1	x	x	x	i	-12
10	O=c1c(S(=O)(=O)c2ccc(Cl)cc2)cn(Cc2ccccc2)c2ccc(F)cc12	4.8	30	14	i	x
11	Cc1noc(C)c1COC(=O)CCC(=O)c1ccc(F)cc1	0.5	-13	0	x	x
12	C/C(=N\NC(=O)C(=O)Nc1cccc(Cl)c1)c1ccncc1	1.3	-116	-1	i	6
13	CCNC(=O)CCSc1nc(C)cc(C)n1	3.9	-8	-11	i	13
14	Cc1ccc(NC(=O)c2cc(S(=O)(=O)NCCc3ccccc3)ccc2F)cc1Cl	3.1	31	-10	x	x
15	Clc1cccc(OCCN2CCN(CCOc3cccc(Cl)c3)CC2)c1	-2.0	51	-32	i	-36
16	COc1ccc(C)cc1S(=O)(=O)Nc1cccc(SC)c1	1.7	-1	16	x	x

cpd	rRNA inh HTS OD600	rRNA inh HTS RFP	ALR H2O2 inh	AF4-AF9 inh	Beta cell apopt
4	-41	-5.6	x	7.1	1
5	4	2.8	0	2.9	-10
6	11	0.7	1	-1.0	-8
7	7	1.7	-15	-1.0	26
8	-5	-2.4	-13	1.3	-1
9	16	-1.1	-4	-3.2	-3
10	x	x	3	0.1	x
11	x	x	-14	x	-8
12	-7	-1.4	-4	-29	81*
13	12	0.1	-3	-5.7	3
14	x	x	x	x	-16
15	-58	-2.8	x	3.4	20
16	x	x	-8	x	2

# Additional records:
cpd	SMILES	RanGTP-Impb inh	T cruzi inh	Calb FLC	FGF22 binding	rRNA inh HTS
17	CCOC(=O)C1=C(C)NC2=C(C(=O)CCC2)C1c1cccs1 (stereo not drawn)	-0.3	-2	-5	x	x
18	COc1ccc(N(CC(=O)NC(C)C)S(=O)(=O)c2ccc(NC(C)=O)cc2)cc1	-0.5	0	-1	i	0
19	CCC(C)SCC(=O)Nc1ccc(S(=O)(=O)N2CCOCC2)cc1OC (stereo not drawn)	-0.6	3	7	i	-4
20	COc1ccc(NS(=O)(=O)c2ccc(O)c(NS(=O)(=O)c3ccc(NC(C)=O)cc3)c2)cc1	x	x	x	i	5
21	Cc1nc2sccn2c(=O)c1Cl	4.3	-21	-5	i	10
22	COc1ccc(NC(=O)COc2cccc(-n3cnnn3)c2)cc1Cl	u	-3	-2	i	1
23	CC(C)CN(CCC(=O)O)CC(C)C	4.1	1	-4	x	x
24	COc1cc(/C=N/NC(=O)c2ccncc2)ccc1OC(=O)c1cccc(Br)c1	0.7	-22	23	i	x

cpd	rRNA inh HTS OD600	rRNA inh HTS RFP	ALR H2O2 inh	AF4-AF9 inh	Beta cell apopt
17	x	x	-8	x	-5
18	7	2.5	-1	1.0	-3
19	-4	-0.6	-1	-0.2	-2
20	4	1.6	57	-7.7	-5
21	2	2.3	-8	-9.3	x
22	1	-0.8	-14	-1.5	4
23	x	x	-12	x	0
24	x	x	-1	0.4	-1

# Remaining list, next part.
cpd	SMILES	RanGTP-Impb inh	T cruzi inh	Calb FLC	FGF22 binding	rRNA inh HTS
25	CCOC(=O)c1c(CNc2ccncc2)n(C)c2cc(Br)c(O)cc12	-0.5	12	30	i	14
26	COc1ccc(CNC(=O)C[C@H]2C(=O)N(C3CCCCC3)C[C@@H]2Cc2ccccc2)cc1	1.7	-11	-2	i	1
27	CCN1CCN(c2ccc(NC(=O)c3ccc(F)cc3)cc2Cl)CC1	-4.4	24	-3	i	18
28	CCc1ccc(OCC2Cn3c(nc4c3c(=O)[nH]c(=O)n4C)O2)cc1 (stereo not drawn)	-3.2	6	-10	i	14
29	O=C(/C=C/c1cccs1)NCc1ccc2c(c1)OCO2	-1.5	-1	x	i	8
30	CC(Sc1nc(-c2ccc(F)cc2)cs1)C(=O)Nc1ccc(Cl)cn1 (stereo not drawn)	-1.1	-11	0	x	x
31	CCC(C)c1ccc(NC(=S)N2CCN(S(C)(=O)=O)CC2)cc1 (stereo not drawn)	4.8	-4	13	i	5
32	O=C(COC(=O)Cc1cccs1)Nc1cccc(S(=O)(=O)N2CCOCC2)c1	0.1	-15	-7	i	11

cpd	rRNA inh HTS OD600	rRNA inh HTS RFP	ALR H2O2 inh	AF4-AF9 inh	Beta cell apopt
25	14	0.2	26	2.4	1
26	4	-0.1	0	x	-3
27	19	4.4	-6	-0.9	1
28	8	3.5	-5	-0.9	-8
29	5	-3.0	-5	1.7	-4
30	x	x	-5	x	1
31	0	2.3	-10	0.4	-5
32	13	2.7	0	-2.7	x

# (list continues)
cpd	SMILES	RanGTP-Impb inh	T cruzi inh	Calb FLC	FGF22 binding	rRNA inh HTS
33	COc1ccc(-c2csc3nc(C)nc(N4CCN(C(C)=O)CC4)c23)cc1OC	-0.3	1	6	i	-5
34	O=C(O)CSC(=S)N1CCCC1	0.9	2	-1	i	7
35	COc1ccc(C2Nc3ccccc3C(=O)N2O)cc1CN1CCOCC1 (stereo not drawn)	-0.5	-11	-5	x	x
36	COC(=O)c1cc(S(=O)(=O)N2CCN(c3cccc(C)c3)C(C)C2)c[nH]1 (stereo not drawn)	2.9	-1	9	i	4
37	Cc1ccc(C(C)C)c(Oc2nnnn2-c2ccccc2)c1	-4.2	3	-10	x	x
38	CCCCOc1ccc(C(=O)NCC(=O)NC(C)CCc2ccccc2)cc1 (stereo not drawn)	2.3	6	4	i	x
39	Cc1sc2nc(COC(=O)c3ccc(N4CCCC4)c([N+](=O)[O-])c3)[nH]c(=O)c2c1C	-17	-10	1	x	x
40	CCN(CC)C(=O)CSc1n[nH]c(=O)n1CCc1ccccc1	u	-7	-9	i	9

cpd	rRNA inh HTS OD600	rRNA inh HTS RFP	ALR H2O2 inh	AF4-AF9 inh	Beta cell apopt
33	-5	-1.0	-10	0.2	0
34	10	2.4	0	1.3	-4
35	x	x	0	x	-6
36	5	-0.2	0	-0.6	-15
37	x	x	-7	x	-2
38	x	x	-11	-0.7	2
39	x	x	x	x	1
40	3	7.9	-3	-0.5	-7

# Other compounds follow.
cpd	SMILES	RanGTP-Impb inh	T cruzi inh	Calb FLC	FGF22 binding	rRNA inh HTS
41	COc1ccc(OC)c(S(=O)(=O)N2c3cc(F)ccc3CCC2C)c1 (stereo not drawn)	-0.4	17	27	x	x
42	CC(C)CNC(=O)COCc1cc(-c2ccc3c(c2)OCO3)on1	-3.7	-2	-2	i	2
43	Cc1ccc(SCC(=O)OCC(=O)NCCC2=CCCCC2)cc1	2.2	3	2	i	4
44	O=Nc1c(O)[nH]c2ccc(F)cc12	3.2	0	-13	i	10
45	COc1ccc(/C=N/N(C)c2cc(=O)n(C)c(=O)[nH]2)cc1OC	x	-10	8	i	7
46	Cc1c(Cl)cccc1NC(=O)CC(C(=O)O)C1CCCO1 (stereo not drawn)	1.1	6	-3	x	x
47	O=C(Nc1nnc(S(=O)(=O)N2CCCCCC2)s1)c1ccccc1F	1.8	-3	-3	i	-10
48	O=C(COc1cc(Cl)c(Cl)cc1Cl)NC(=O)NC1CCCC1	0.3	11	3	x	x
49	O=C(Nc1ccc(NC(=O)C2CC2)nc1)c1ccco1	-5.4	-7	-6	x	x

cpd	rRNA inh HTS OD600	rRNA inh HTS RFP	ALR H2O2 inh	AF4-AF9 inh	Beta cell apopt
41	x	x	-8	x	-1
42	-10	3.4	2	-1.1	-4
43	11	0.9	-16	-3.8	2
44	4	3.4	-3	0.9	0
45	8	0.4	-85	1.1	58
46	x	x	-3	x	-8
47	-45	-4.4	37	-8.7	11
48	x	x	-2	x	-6
49	x	x	-10	x	-3

# Source: PubChem BioAssay (Broad Institute)

# An excerpt; rates above refer to the full screens.
